# eIF4H FP inh: human eIF4H binding inhibitors, primary screen, translation initiation inhibitor project, biochemical, uHTS, fluorescence polarization; AID 2012, 2009; inhibition, % at 35 µM; eIF4H fluorescence polarization binding assay; hit rate 0.94% among 290,000; Eukaryotic translation initiation factor 4H (Homo sapiens), Q15056;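 active = 50% or more with normal probe brightness, or confirmed in later tests; inconclusive = above 50% with abnormal brightness, or retests that disagree; inactive = below 50% or failed in later tests; about a fifth of its hits are not listed in these tables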;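 also: calls also rest on retests at 20 µM and on dose response follow-up; 0% = protein and probe with vehicle and 100% = probe without protein; strong numbers were not always called active; many hits fall short of the cut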
# PABP FP inh: PABP poly(A) RNA binding inhibitors, primary screen, biochemical, fluorescence polarization, uHTS; inhibition, % at 35 µM; Polyadenylate-binding protein 1 (Homo sapiens), P11940; hit rate 1% among 290,000;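 active = 50% or more with normal probe brightness, or confirmed in later tests; inconclusive = above 50% with abnormal brightness, or retests that disagree; inactive = below 50% or failed in later tests; about a fifth of its hits are not listed in these tables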;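 also: calls also rest on retests at 20 µM and on dose response follow-up; controls were probe without protein and protein plus probe with vehicle; some compounds called inactive have numbers as strong as hits; many hits fall short of the cut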
# Target sequence (P11940 whole entry, looked up): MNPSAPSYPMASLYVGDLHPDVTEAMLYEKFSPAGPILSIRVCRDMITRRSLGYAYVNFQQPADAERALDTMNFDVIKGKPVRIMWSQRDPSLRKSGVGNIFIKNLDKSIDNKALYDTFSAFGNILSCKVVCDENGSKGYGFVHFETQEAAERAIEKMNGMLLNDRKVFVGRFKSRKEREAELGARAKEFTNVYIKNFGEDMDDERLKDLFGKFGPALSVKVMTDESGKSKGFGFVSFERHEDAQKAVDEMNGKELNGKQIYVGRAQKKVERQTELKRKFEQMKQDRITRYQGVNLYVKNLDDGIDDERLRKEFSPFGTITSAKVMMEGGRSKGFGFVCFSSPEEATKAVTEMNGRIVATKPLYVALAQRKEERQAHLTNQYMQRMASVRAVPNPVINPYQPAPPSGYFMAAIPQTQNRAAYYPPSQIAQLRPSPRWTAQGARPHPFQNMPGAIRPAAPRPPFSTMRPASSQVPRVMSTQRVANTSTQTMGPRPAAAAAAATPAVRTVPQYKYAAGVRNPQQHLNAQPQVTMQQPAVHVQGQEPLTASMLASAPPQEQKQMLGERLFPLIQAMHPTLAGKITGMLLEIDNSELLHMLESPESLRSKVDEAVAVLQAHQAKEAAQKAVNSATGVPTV
# UUG fidelity: modulators of yeast start codon fidelity, primary screen, whole organism, S. cerevisiae, single point, plate reader; S. cerevisiae UUG-firefly luciferase reporter, luminescence/redox ratio; hit rate 0.13% among 350,000; activity score, % at 18.7 µM; AID 602363, 2012;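 active = replicate mean at a twofold rise or more, about +100% in these data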;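 also: firefly luciferase made from a UUG start codon reports start codon fidelity; reporter light over untreated wells divided by growth signal over untreated wells; some hits fall short of that in this replicate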
# Rce1 inhib: yeast Rce1p protease inhibitors, primary screen, biochemical, fluorescence, cell-free homogeneous; yeast membranes, quenched prenylated peptide cleavage fluorescence; calls only; hit rate 0.27% among 290,000;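 active = fall in fluorescence gain of 50% or more versus controls, with final raw signal at or below 3038400; inconclusive = same 50% fall but final raw signal above 3038400; inactive = fall in fluorescence gain under 50%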;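 also: plate controls were neutral control wells for no effect and wells lacking membranes for full effect; tested at 10 µM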
# CSC inhib: cancer stem cell viability inhibitors, primary screen, luminescence; hit rate 1.1% among 300,000; cancer stem cell-like cells viability; AID 2717, 2010; inhibition, % at 7.5 µM;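 active = mean at 75% or more and at least half the replicates too; inconclusive = mean and replicates disagree; tested in HMLE shEcad cells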;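 also: 0% = median of negative and 100% = median of positive control wells; the first replicate is given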
# HIV Env fusion: inhibitors of HIV-1 Env-driven cell-cell fusion, primary screen, HeLa-JRFL effector, CEM21 target cells, luciferase | inhibition, % at 12.3 µM | hit rate 1.1% among 360,000 | AID 651610, 2012;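 active = mean replicate inhibition score of at least 50 and every replicate individually at or above 50; inconclusive = only one of the two criteria met; inactive = mean below 50 and not all replicates reaching 50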;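 also: 0% = plate neutral controls and 100% = maraviroc near 300 nM; one replicate is shown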
# MT1-MMP act inh: blockers of MT1-MMP proenzyme processing, primary screen, HT1080 RFP-PRO-GFP cells, GFP/RFP fluorescence. Matrix metalloproteinase-14 (Homo sapiens), P50281. hit rate 0.061% among 360,000. GFP/RFP ratio fluorescence, overnight; percent of plate control window, DMSO zero. GFP/RFP ratio change, % at 20 µM;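 active = GFP/RFP ratio change of at least 30% with cell ATP level not reduced by more than half and red fluorescence within 50% of control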; also: strong numbers were not always called active
#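 Material – HT1080 RFP-PRO-GFP cells · Control set – DMSO wells and RFP-L50D-GFP cells · Incubation – overnight cell settling, then overnight compound exposure, 37 °C, 5% CO2 · Compound dosing – single-point 20 µM compound, 1% DMSO · Read-out – GFP/RFP fluorescence ratio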
# MT1-MMP act inh RFP: further read-out of MT1-MMP act inh, marked with its call; RFP signal change, %; measured here: RFP expression control read;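 0 = vehicle wells; hits needed this value within 50% of zero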
# Starred values were filed as active, the others as inactive; i = inactive; ? = inconclusive; / = not tested or not shown; & = joins results of further samples. Compounds were not picked by outcome, and some 2.9% of all compounds hit somewhere here.
SMILES,eIF4H FP inh,PABP FP inh,UUG fidelity,Rce1 inhib,CSC inhib,HIV Env fusion,MT1-MMP act inh,MT1-MMP act inh RFP
CN(C)CCN1C(=O)C2C(C(=O)Nc3cc(Cl)cc(Cl)c3)C3C=CC2(O3)C1C(=O)NC1CCCCC1 (centres undefined),-6,1,-19,i,7,-25,-1,2
COc1ccc(C2C(C(=O)c3ccccc3)N3c4ccccc4C=CC3C2[N+](=O)[O-])cc1 (centres undefined),38,1,/,/,/,10,-111,9
Cc1cccc(CS(=O)(=O)c2cn(CC(=O)N3CCOCC3)c3ccccc23)c1,-2,-7,-10,i,2,1,/,/
CC(C)CCNC(=O)CCCOc1ccccc1,6,-5,7,i,-4,/,2,7
Cc1ccc(S(=O)(=O)N2CCN(C(=O)COC(=O)c3cc([N+](=O)[O-])ccc3NCCO)CC2)c(C)c1,/,/,7,/,9,/,-2,-6
Cc1c(NC(=O)c2cccc(NC(=O)COc3ccc(C#N)cc3)c2)c(=O)n(-c2ccccc2)n1C,/,/,-4,/,/,5,0,-1
CCCC(=O)Nc1cc2c(cc1C(C)=O)OCCO2,-6,-4,-12,i,/,7,1,-2
COCCCNC(=O)Cn1nnc(-c2ccc(NC(=O)c3ccccc3F)cc2)n1,-1,0,-41,i,-1,/,2,3
CCC1(C)Cc2ccccc2-c2nc(SCC(N)=O)[nH]c(=O)c21 (centres undefined),-3,-10,-5,i,/,3,-7,-2
CCOC(=O)c1ccc(N=C2SC(C(=O)Nc3ccc(C(=O)O)cc3)CC(=O)N2Cc2cccs2)cc1 (centres undefined),13,2,-27,i,6,4,-8,-7
Cc1nc2ccccc2nc1CN1CCN(Cc2ccc(F)c(F)c2)C(CCO)C1 (centres undefined),-3,10,-12,i,2,8,-5,-3
O=C(COC(=O)CSc1ccc([N+](=O)[O-])cc1)NCCCc1ccccc1,-1,10,-15,i,/,/,-1,4
O=C(CSc1nnc(SCC(=O)NCc2ccc3c(c2)OCO3)s1)NCc1ccc2c(c1)OCO2,-4,4,-28,/,/,-16,10,10
Cc1cc(C)nc(N2CCCC(C(=O)NCC(c3ccccc3)c3ccccc3)C2)n1 (centres undefined),5,-2,-14,i,6,-25,8,1
Cc1cc(Br)c(NC(=O)Cn2c([N+](=O)[O-])cnc2C)cc1C,0,-4,-25,i,6,5,0,-1
C=CCn1c(C)c(C(C)=O)c(N2CCOCC2)nc1=S,15,-7,-14,i,-15,/,3,4
Cc1nc(N2CCCCC2)c2ccsc2n1,12,20,-10,i,-17,20,-9,-14
O=C(NNC1=NS(=O)(=O)c2ccccc21)c1cccc([N+](=O)[O-])c1,-8,12,-3,i,-15,5,-1,4
O=C(CN1C(=O)COc2ccccc21)NNC(=O)Nc1ccccc1F,6,-8,-22,i,19,-30,0,2
COc1cc(CCCN2C(=O)C(=O)NC[C@@H]2c2ccccc2)cc(OC)c1OC,-10,2,11,i,-1,-2,1,4
CCOc1ccc(N(C(=O)CNC(=O)c2ccco2)C(C(=O)NC2CCCC2)c2cccnc2)cc1 (centres undefined),-2,-3,-6,i,/,5,4,12
CCOc1ccc2nc3sc(C(=O)N4CCN(C)CC4)c(N)c3cc2c1,15,19,-14,i,32,-59,-3,4
CCN(C(=O)Cn1c(=O)oc2ccccc21)c1cccc(C(F)(F)F)c1,-12,-2,0,i,-5,/,-1,-6
N#CC1(NC(=O)COc2ccccc2[N+](=O)[O-])CCCCC1,/,/,-13,i,-10,-8,-10,-3

# Entries of single compounds, looked up by structure. Values in the order: eIF4H FP inh, PABP FP inh, UUG fidelity, Rce1 inhib, CSC inhib, HIV Env fusion, MT1-MMP act inh, MT1-MMP act inh RFP
# CCOc1ccc(N(C(=O)CNC(=O)c2ccco2)C(C(=O)NC2CCCC2)c2cccnc2)cc1 (centres undefined) as listed: -2, -3, -6, i, /, 5, 4, 12
# COc1cc(CCCN2C(=O)C(=O)NC[C@@H]2c2ccccc2)cc(OC)c1OC as listed: -10, 2, 11, i, -1, -2, 1, 4
# C=CCn1c(C)c(C(C)=O)c(N2CCOCC2)nc1=S as listed: 15, -7, -14, i, -15, /, 3, 4
# N#CC1(NC(=O)COc2ccccc2[N+](=O)[O-])CCCCC1 as listed: /, /, -13, i, -10, -8, -10, -3
# Cc1nc(N2CCCCC2)c2ccsc2n1 as listed: 12, 20, -10, i, -17, 20, -9, -14

# New compounds follow:
SMILES,eIF4H FP inh,PABP FP inh,UUG fidelity,Rce1 inhib,CSC inhib,HIV Env fusion,MT1-MMP act inh,MT1-MMP act inh RFP
Cc1ccc(C(=O)NCc2ccc(Cl)cc2)cc1S(=O)(=O)N1CCCCC1,/,/,-13,/,/,5,1,-4
CCCCNC(=O)c1ccccc1NC(=O)CCC,-2,4,/,i,4,7,3,0
Clc1ccc(Cc2ccccc2)nn1,-10,6,-7,i,-1,-33,5,1
O=C(CC1OCC2CCCN2C1=O)Nc1ccc([N+](=O)[O-])cc1 (centres undefined),-4,4,/,i,/,-2,2,6
Cc1ccc(C(=O)NC2CCCN(c3ccc(C(F)(F)F)cn3)C2)cn1 (centres undefined),0,8,6,i,-9,0,15,0
COc1cc(CNC(=O)C2CCCC2)cc(OC)c1OC,-4,-7,-19,i,-20,-1,1,2
CCOc1ccc(NC(=O)CCC(=O)c2ccc(Br)cc2)cc1,3,-6,5,i,5,4,3,-2
COC(=O)C1CN(S(=O)(=O)c2ccc(NC(C)=O)cc2)CCS1 (centres undefined),-4,-4,3,i,-14,2,5,4
CC(=O)c1cccc(-c2ccnc3c2CC(C(=O)Nc2ccc(C(C)C)cc2)O3)c1 (centres undefined),/,/,-15,/,/,0,6,-1
COc1cc2cnc(CCO[C@H]3CCCCO3)cc2cc1OC,/,/,-5,/,16,-7,-2,-1
Cc1n[nH]c(C)c1SCC(=O)Nc1ccc(F)cc1,3,6,/,i,-4,/,-3,9
Nc1nc(Nc2ccccc2)nc2ccccc12,1,5,-37,i,22,-201,43,1
CCOC(=O)/C(C#N)=C/c1ccc(OC)c(OC)c1,-4,-1,-12,i,/,-49,5,1
COc1ccc(N2CC(C(=O)NC3=NCCS3)CC2=O)cc1 (centres undefined),5,-9,-16,i,1,8,-6,-3
COc1ccc2c(C=O)cn(C)c2c1,6,3,1,i,-1,-3,-6,-3
CC[C@H](C)[C@H]1O[C@]2(CC[C@@H]1C)C[C@@H]1C[C@@H](CC=C(C)[C@@H](O[C@H]3C[C@H](OC)[C@@H](O[C@H]4C[C@H](OC)[C@@H](O)[C@H](C)O4)[C@H](C)O3)[C@@H](C)C=CC=C3CO[C@@H]4[C@H](O)C(C)=C[C@@H](C(=O)O1)[C@]34O)O2,/,/,2,/,103*,/,-23,-28
COc1cc(CN2CCc3ccccc3C2)ccc1O,3,8,/,i,22,33,6,-8
C=C1CCN([C@@H](CC(C)C)C(=O)NCc2ccco2)S(=O)(=O)c2ccccc21,/,/,-11,i,1,19,2,-3
CCOc1ccc(CCNC(=O)COC(=O)/C=C/c2cccc(OC)c2)cc1OCC,/,/,-16,i,-14,-2,4,4
Cc1cc(C(=O)N[C@H](c2ccccc2)[C@@]2(C)C[C@@H]2[C@@H](C)C(=O)Nc2ccc3ccccc3c2)no1,-7,1,-8,i,6,12,-9,-12
O=C(NC1CCCCC1)C1c2ccccc2C(=O)N1Cc1ccc2c(c1)OCO2 (centres undefined),3,-5,/,i,-8,2,3,3
O=C(O)CC1(C(=O)O)CC2C=CC1C2 (centres undefined),/,/,-7,/,/,4,-1,1
Cc1ccc(-c2nc(C3CCCN(S(=O)(=O)c4ccc(C(C)(C)C)cc4)C3)no2)cc1 (centres undefined),-7,3,-11,i,4,10,2,2
C(=N\c1nccs1)/Nc1nccs1,-2,5,/,i,/,/,1,3
O=C(O)c1cccc(N/N=C/c2cn(-c3ccccc3)nc2-c2cccs2)c1,24,5,0,i,6,-227,0,-1
COc1ccc(C)cc1NC(=O)CN1CCN(S(=O)(=O)c2ccc(C(C)C)cc2)CC1,-5,6,-4,i,0,/,-17,-19
Cc1cccc(Cn2c(N3CCN(CCO)CC3)nc3c2c(=O)[nH]c(=O)n3C)c1,0,3,47,i,-15,-13,-4,-4
COc1cccc(C2c3[nH]c4ccccc4c3CCN2Cc2cnn(C)c2)c1 (centres undefined),-2,3,-7,i,-3,-11,-2,0
COc1ccc(S(=O)(=O)N2CCOCC2)cc1NC(=O)c1ccncc1,/,/,-22,/,-15,/,-2,2
O=C(CN1CCN(Cc2ccccc2)CC1)N/N=C/C=C/c1ccccc1[N+](=O)[O-],3,-3,/,i,/,11,0,2
O=C(O)c1ccc(CNCc2cccc(Cl)c2Cl)cc1,2,16,-14,i,-11,/,1,2
Nn1c(SCC(=O)NC(=O)NC2CCCC2)nnc1-c1ccccc1F,-11,-1,-3,i,-12,/,3,0
Cc1cc(Nc2c(C)n(C)n(-c3ccccc3)c2=O)n2c(nc3ccccc32)c1C#N,4,10,-1,i,/,6,-2,-5
Cc1ccc(C(=O)N2CCC3CC2c2cc(-c4ccc5c(c4)OCO5)ccc23)cc1 (centres undefined),/,/,-32,/,/,23,-1,-11
CCOc1ccc(-n2c(SCC(=O)NC3CCS(=O)(=O)C3)nnc2-c2cccnc2)cc1 (centres undefined),-2,-9,-14,i,-8,0,0,2
CCCN(CCC)CC(O)Cn1cc(/C=C/C(=O)c2cccs2)c2ccccc21 (centres undefined),?,4,/,i,4,-2,-41,-3
O=c1cc(O)c2c(=O)n(-c3ccccc3)c3c(c2o1)CCCCC3,-2,-11,-13,i,-8,-38,-4,4
O=C(COC(=O)c1ccc(O)cc1)NC(=O)NCc1ccccc1,/,/,6,/,/,0,-1,2
CC(C)(C)OC(=O)N1CCC(c2c(C(=O)N3CCN(C(=O)c4ccco4)CC3)cnn2-c2ccc(F)cc2F)CC1,-1,9,17,i,-8,-7,3,6
OCC[C@@H]1C[C@H](O)[C@@H](O)[C@@]2(CCCc3ccccc3O2)O1,21,6,0,i,-1,0,-2,2
NS(=O)(=O)c1ccc(NC(=S)NC(=O)c2ccco2)cc1,-1&-5,-7&12,-7,i,16,-25,-3,2
CC(Oc1ccccc1)C(=O)NC1=NCCS1 (centres undefined),-2,-10,/,i,0,-30,2,9
O=C(CSc1ncccn1)N/N=C/c1ccc2c(c1)OCO2,3,-2,-6,i,-30,-10,-3,-4
O=C(NCCC(=O)N1CCC2(CC1)NCCc1[nH]cnc12)c1cccc(C(F)(F)F)c1,/,/,-6,i,-7,0,0,3
COc1ccc(NC(=O)CN(C)S(=O)(=O)c2cnc[nH]2)cc1,2,-1,-16,i,-7,6,-3,0
CC(C)=NOC(=O)c1ccc(-c2ccccc2)cc1,4,0,-10,i,-1,25,3,6
Cc1cc(C)n(-c2nc3ccccc3c(=O)n2OC2CCCCC2)n1,-2,0,-21,i,-10,/,-1,3
CCNC(=O)C1CCCN(C(=O)c2cccc(OC(F)(F)F)c2)CC1 (centres undefined),/,/,-9,/,/,-4,0,0

# Source: PubChem BioAssay (several laboratories)
